Calb FLC – C. albicans growth inhibition with fluconazole, primary screen, CaCi-2 strain, Alamar Blue fluorescence; C. albicans CaCi-2 (fluconazole-resistant clinical isolate) + fluconazole, 48 h; growth inhibition, % (no concentration beside the values); hit rate 0.57% among 300,000; AID 1979, 2009;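 active = most replicates above 75%; inconclusive = exactly half above 75%; inactive = most below 75%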;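 note: all wells also contain fluconazole at 8 µg/ml as a sub-toxic cotreatment; 0% = median of DMSO wells and 100% = median of geldanamycin control wells; wells of about 8 µL received 7.5 nL stock; the first replicate is given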
T cruzi repl – inhibitors of intracellular T. cruzi growth, primary screen, luminescence, NIH3T3 host cells; T. cruzi beta-gal in NIH3T3, 90 h; inhibition, % (no concentration beside the values); hit rate 1.4% among 300,000;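 active = mean inhibition across valid replicates above about 55%, limit read from the data; inconclusive = mean below that limit but half or more replicates reach it; inactive = mean below it, under half of replicates reach it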;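 note: signal also drops with host cell toxicity which is not excluded here; 0% = plate median of DMSO wells and 100% = zero luminescence signal; higher percent means less beta-gal luminescence so fewer parasites; stock transfer was 50 nL into about 50 µL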
Beta cell apopt – inhibitors of cytokine-induced beta cell apoptosis, primary screen, luminescence; hit rate 0.8% among 300,000; protection from apoptosis, % (concentration not given with the values); AID 435005, 2010; INS-1E cytokine-induced death, ATP luminescence, 48 h; percent of positive-control rescue, neutral wells zero;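 active = all replicates at 75% or more, or half of them and the mean; inconclusive = half reach 75% but not the mean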;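 note: 0% = cytokine-treated negative control wells and 100% = positive control rescue; higher means more ATP so stronger rescue from cytokine killing; wells of about 40 µL received 100 nL stock; the first replicate is given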
RanGTP-Imp inh – inhibitors of RanGTP-importin-beta interaction, primary screen, biochemical, FRET, CFP-Ran, YFP-importin-beta, homogeneous; Ran GTPase (GTP-bound) - importin-beta complex; cell-free CFP-Ran/YFP-importin-beta FRET ratio; inhibition, % (test concentration not listed); hit rate 1.1% among 300,000; AID 2216, 2009;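 active = most replicates above 15%; inconclusive = exactly half above 15%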;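 note: 0% = DMSO wells and 100% = Ran loaded with GDP instead of GTP; wells of about 40 µL received 100 nL stock; the first replicate is given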
A1 inh – caspase 3/7 activation in MEF A1-2A-BIM cells, primary screen, A1 inhibitor project, cell-based, luminescence, HTS. Caspase-Glo 3/7 luminescence, 3 h; percent of clofoctol response, vehicle zero. caspase activation, % (no concentration beside the values). hit rate 0.066% among 330,000. AID 2462, 2010;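 active = over half of replicate activation scores above 10%, or exactly half above 10 with the replicate mean above 10; inconclusive = replicate mean below 10 yet half the replicates above 10; inactive = over half of replicates below 10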;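 note: wells of about 30 µL received 50 nL stock; many hits fall short of the cut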
LANA-H2B inh – blockers of LANA interaction with H2A/H2B – biochemical, FP readout, HTS, primary screen; cell-free LANA-H2A/H2B peptide, fluorescence polarization; inhibition, % (concentration not given with the values); hit rate 0.6% among 320,000; in the data active = inhibition mostly above about 10%, no sharp cut-off; inactive = mostly below about 6.7%;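 note: stock transfer was 7.5 nL into about 10 µL; 0% = median of vehicle wells and 100% = median of positive control wells; one replicate is shown; the record names a cut of 25% in any replicate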
Beta2AR agonist – beta2AR agonists driving receptor internalization, primary screen, cell-based, FAP fluorogen, flow cytometry; Am2.2-beta2AR cells; reference of the scale not given here; response, % (concentration not given with the values); hit rate 0.43% among 340,000; AID 504454, 2011; Beta-2 adrenergic receptor (Homo sapiens), P07550;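 active = response above a set limit, near 3 SD of response in nonfluorescent compounds, cut at about 42% in these data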;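 note: stock transfer was 100 nL into about 11 µL; a reference agonist was the positive control; negative values mostly stem from fluorescent compounds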
Target sequence (P07550 whole entry, looked up): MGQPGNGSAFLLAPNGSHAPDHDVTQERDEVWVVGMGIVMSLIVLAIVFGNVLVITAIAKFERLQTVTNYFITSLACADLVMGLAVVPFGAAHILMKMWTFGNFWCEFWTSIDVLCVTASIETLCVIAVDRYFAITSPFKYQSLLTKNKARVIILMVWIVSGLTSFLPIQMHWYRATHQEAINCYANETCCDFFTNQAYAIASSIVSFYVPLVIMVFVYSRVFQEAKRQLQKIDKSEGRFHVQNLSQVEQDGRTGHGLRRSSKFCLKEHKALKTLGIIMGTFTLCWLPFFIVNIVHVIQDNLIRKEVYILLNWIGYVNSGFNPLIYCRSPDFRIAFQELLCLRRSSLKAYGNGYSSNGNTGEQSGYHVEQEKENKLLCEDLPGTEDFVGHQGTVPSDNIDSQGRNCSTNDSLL
UCH37 inh – inhibitors of human UCH37 deubiquitinase, primary screen, biochemical, Ub-AMC cleavage, fluorescence; purified proteasome/UCH37; inhibition, % (no concentration beside the values); hit rate 0.33% among 330,000;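 active = mean of two replicates above 20%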;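 note: 0% = compound-free wells with enzyme and 100% = wells lacking proteasome; stock transfer was 100 nL into about 20 µL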
Target sequence (Q9Y5K5 whole entry, looked up): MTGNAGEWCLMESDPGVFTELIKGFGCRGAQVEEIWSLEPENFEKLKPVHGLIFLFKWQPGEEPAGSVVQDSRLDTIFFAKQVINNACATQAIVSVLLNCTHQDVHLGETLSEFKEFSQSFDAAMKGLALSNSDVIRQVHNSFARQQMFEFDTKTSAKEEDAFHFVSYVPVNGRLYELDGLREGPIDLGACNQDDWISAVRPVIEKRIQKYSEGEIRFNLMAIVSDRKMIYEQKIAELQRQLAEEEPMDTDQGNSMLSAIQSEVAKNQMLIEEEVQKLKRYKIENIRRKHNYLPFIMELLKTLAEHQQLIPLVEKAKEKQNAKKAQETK
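system = Proteasome-associated human UCH37 deubiquitinase | amount = 0.15 nM proteasome as dispensed | medium = pH 7.4 Tris-HCl (50 mM) with ovalbumin, ATP-MgCl2, DTT | incubation = 30 min preincubation with enzyme, 25 min cleavage at room temperature | detection = AMC fluorescence 355/460 nm | read-out basis = percent inhibition | controls = no-proteasome and no-compound wells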
Starred values were filed as active, the others as inactive; i = inactive; u = inconclusive; x = not tested or not shown.

nr | SMILES | Calb FLC | T cruzi repl | Beta cell apopt | RanGTP-Imp inh | A1 inh | LANA-H2B inh | Beta2AR agonist | UCH37 inh
1 | CC(C)c1nnc(NC(=O)CC23CC4CC(CC(C4)C2)C3)s1 | -2.7 | 5.7 | 1.2 | u | 0.0 | 3.7 | -4.6 | 1.7
2 | CCC1C(c2ccccc2)N(C)C(c2ccccc2)CC1(O)c1ccccc1 (configuration not stated) | 0.7 | 59.5* | -0.8 | -0.9 | 0.0 | 1.6 | 23.9 | 2.5
3 | COC(=O)[C@@H](C)NC(=O)c1ccc2oc(CCc3ccccc3)nc2c1 | 4.1 | 4.8 | x | -2.2 | -3.6 | 0.0 | 4.2 | 2.2
4 | O=C(c1ccc(Cl)c(S(=O)(=O)N2CCCC2)c1)N1CCOCC1 | -0.1 | -7.0 | -2.9 | -5.6 | 0.0 | -4.9 | 1.3 | 1.6
5 | Cn1ccnc1C(=O)c1cccc(Br)c1 | 9.8 | -9.8 | -2.7 | 1.6 | -2.9 | 0.2 | -2.6 | 5.9
6 | CC(NC(=O)C12CC3CC(CC(C3)C1)C2)c1ccc(F)cc1 (configuration not stated) | 7.1 | 2.5 | 2.3 | 2.5 | 1.5 | 2.3 | 1.4 | 2.4
7 | Cc1ccc2nc(N3CCN(Cc4nnnn4C4CCCC4)CC3)c(C#N)cc2c1 | 9.7 | 27.3 | -4.6 | 0.5 | 0.4 | 4.3 | -3.5 | -7.8
8 | COc1ccccc1-c1noc(CCCC(=O)N2CCOCC2)n1 | -11.0 | -4.2 | -6.0 | -1.3 | -0.1 | 0.1 | -6.1 | 1.8
9 | CCOC(=O)c1cc2nc(-c3ccccc3)cc(C)n2n1 | -2.7 | 0.1 | 1.5 | 0.2 | -0.6 | 0.2 | -3.3 | -65.3
10 | Cc1ccc(S(=O)(=O)c2nc(-c3ccco3)oc2SC(C)C)cc1 | -5.6 | 22.6 | -1.5 | -1.4 | -0.2 | -1.8 | -11.3 | 5.4
11 | COc1ccc(NC(=O)C/C(C)=N/NC(=O)C2CCCCC2)c([N+](=O)[O-])c1 | -3.8 | 5.4 | -5.1 | 0.4 | -0.2 | 0.7 | -2.1 | x
12 | COC(=S)N/C(=N\S(=O)(=O)c1ccc(Cl)cc1)c1ccccc1 | 6.2 | -25.8 | -6.1 | 3.9 | -2.4 | 5.8 | 3.4 | x
13 | CCOC(=O)C(=CNc1ccc2c(c1)nnn2-c1ccc(Cl)cc1)C(=O)OCC | 36.6 | 13.5 | -6.1 | -2.9 | 0.6 | -1.1 | -2.2 | -39.3
14 | CCc1ccc(N2CC(C(=O)OCC(=O)c3c(N)n(CC(C)C)c(=O)n(C)c3=O)CC2=O)cc1 (configuration not stated) | -2.6 | 0.4 | -0.7 | -2.8 | 0.3 | -2.1 | 3.4 | 0.2
15 | CCN(CC(=O)NCc1cccnc1)S(=O)(=O)c1ccc(OC)cc1 | -2.9 | 4.4 | -4.3 | 7.3 | 0.4 | 5.5 | -4.8 | -2.4
16 | CCOC(=O)C(Cc1ccccc1)NC(=O)CCc1c(C)nc2ncnn2c1C (configuration not stated) | 2.9 | -19.1 | -1.5 | 1.6 | x | 4.1 | 6.5 | 4.0
17 | O=C(NNC(=S)Nc1ccc(Cl)cc1)c1ccccc1 | 13.1 | 0.6 | 3.7 | 1.3 | 0.9 | 1.3 | 10.3 | 2.6
18 | Nc1nonc1C(=Nc1ccc(Br)cc1)NO | -15.3 | -3.7 | -13.2 | -6.5 | 0.4 | -1.6 | 0.4 | 4.8
19 | CC1CC2(CCCCC2)Nc2c1ccc1ccccc21 (configuration not stated) | -3.8 | 28.0 | 8.9 | 2.1 | -0.5 | 0.4 | 8.4 | -27.9
20 | CCOC(=O)c1cnc2nc(N3CCOCC3)nn2c1N | u | 0.6 | -6.9 | u | -0.7 | 2.2 | -5.5 | 2.6
21 | CCCc1cnc(N2CCN(S(=O)(=O)c3cccs3)CC2)nc1 | 0.0 | -1.8 | 0.0 | 3.4 | 0.2 | -2.1 | 0.5 | 1.1
22 | N/C(=N\OC(=O)c1cccnc1)c1ccccc1Cl | 3.7 | -6.2 | 3.7 | -0.4 | -1.5 | -2.7 | 2.5 | 3.7
23 | CC(=O)Nn1cc2c(=O)n(C)c(=O)n(C)c2c1 | -6.2 | -4.4 | 3.8 | 1.7 | -0.2 | -5.3 | -7.0 | 4.9
24 | O=C(Cc1cccs1)NCc1cc(Cl)cc(Cl)c1 | -9.4 | -8.0 | -0.5 | u | -0.2 | -3.0 | 1.0 | 2.3
25 | N#Cc1ccccc1CSc1nc(O)cc(=O)[nH]1 | -5.8 | -5.8 | -4.6 | 9.4 | 0.2 | -0.2 | 3.5 | 2.0
26 | COC(=O)c1ccc(OCCOCCOc2cccc3ccc(C)nc23)cc1 | 1.6 | 1.6 | -7.4 | 6.1 | -0.8 | -4.5 | -3.8 | -5.1
27 | Cc1nn(Cc2ccccc2Cl)c(C)c1NC(=O)c1noc2c1CCCCC2 | 8.6 | 4.5 | -0.3 | u | -0.2 | -0.2 | -17.3 | -0.4
28 | O=C(NC1CCCc2ccccc21)c1ccc(CNc2c(N3CCOCC3)c(=O)c2=O)cc1 (configuration not stated) | 0.7 | -4.0 | 1.0 | 0.2 | 0.0 | 1.3 | 0.0 | 7.6
29 | Cc1ccc(C)c(NC(=O)CCc2nnc3ccc(N4CCCCC4)nn23)c1 | -3.1 | 2.5 | 6.8 | 1.5 | 0.2 | -2.4 | -13.9 | 4.9
30 | COCCCN1C(=O)C(O)=C(C(=O)c2ccco2)C1c1ccccc1 (configuration not stated) | -6.2 | -35.1 | -9.5 | 4.2 | 0.1 | 5.6 | -5.7 | 0.0
31 | COC(=O)c1ccccc1NC(=O)N1CCCC1 | 0.3 | -4.6 | 1.2 | x | -1.0 | 1.8 | -7.0 | -28.3
32 | CCc1cc(=O)oc2c3c(cc(OCC(=O)NCc4ccncc4)c12)OC(C)(C)CC3 | 8.8 | 42.1 | 14.5 | 0.7 | 0.4 | -3.5 | -6.8 | i
33 | S=C(c1ccc(-c2ccccc2Cl)o1)N1CCCCC1 | -9.2 | 26.4 | -5.0 | 7.5 | u | -1.9 | -8.1 | 6.5
34 | Cc1cc(C)c2[nH]c(=O)c(CN(Cc3ccco3)C(=S)NCC3CCCO3)cc2c1 (configuration not stated) | 6.5 | -28.1 | 3.3 | -1.3 | 1.4 | 1.6 | 4.6 | 0.1
35 | COc1cc2c(c(OC)c1OC)-c1ccc(NC(=O)c3ccccc3)c(=O)cc1[C@@H](NC(C)=O)CC2 | -2.5 | 16.6 | 17.9 | -3.1 | 0.3 | 0.4 | 2.0 | -2.8
36 | COc1ccc(OC)c(NC(=S)NCCN2CCOCC2)c1 | 4.7 | -8.5 | -1.2 | -4.3 | 0.0 | -0.6 | 9.3 | 0.9
37 | C[C@H](CO)N1C[C@H](C)[C@@H](CN(C)S(=O)(=O)c2ccccc2)Oc2c(cccc2N(C)C)C1=O | x | x | 1.2 | x | -0.2 | 1.6 | 0.2 | -0.8
38 | COc1ccc(N2CCN(CCCNC(=O)C3CCCN(S(=O)(=O)c4cnc[nH]4)C3)CC2)cc1 (configuration not stated) | 2.5 | -5.5 | x | -2.5 | 1.3 | 0.3 | -6.1 | 4.9
39 | CCN(C(=O)CSc1nnc(-c2c[nH]c3ccccc23)n1C1CC1)C1CCS(=O)(=O)C1 (configuration not stated) | x | x | -3.5 | x | 0.3 | -1.3 | 0.2 | 2.5
40 | Cc1cc(NC(=O)COC(=O)C2CC(=O)N(c3ccc(Br)cc3)C2)no1 (configuration not stated) | 6.1 | -9.4 | -1.8 | -5.2 | 0.3 | 4.4 | -1.2 | 4.2
41 | CCCc1cc(=O)n2[nH]c(C(F)(F)F)nc2n1 | -0.7 | -19.3 | 0.5 | u | -0.5 | 2.4 | -0.5 | -0.1
42 | O=C(Nc1ccc2c(c1)C(=O)OC2)c1ccc(F)cc1F | 1.6 | -9.2 | -2.9 | -3.1 | 0.4 | -7.3 | -5.1 | 3.3
43 | CCCS(=O)(=O)c1nc(S(=O)(=O)c2ccc(C)cc2)c(N2CCCC2)s1 | 3.6 | 15.9 | -5.7 | 1.5 | -0.9 | 7.6 | -7.7 | -0.8
44 | COC(=O)c1cccc(NC(=O)CC2NCCNC2=O)c1 (configuration not stated) | 0.5 | 7.2 | 0.1 | -1.1 | 0.7 | 1.7 | -3.4 | -1.1
45 | COc1cc2ncnc(NCc3ccc4c(c3)OCO4)c2cc1OC | -1.4 | 2.6 | 2.2 | u | 1.7 | -4.2 | 3.4 | 4.7
46 | Cc1cc(Cl)c(S(=O)(=O)Nc2ccon2)cc1OCC(=O)NC1CCCCC1 | -9.6 | 0.3 | -0.2 | 1.8 | 0.4 | -5.1 | 1.5 | 1.2
47 | N#Cc1ccccc1NC(=O)CNc1ccccc1N1CCCCC1 | -12.6 | -7.5 | -3.5 | -1.4 | -0.1 | 0.8 | -0.8 | 7.4
48 | CN(C)CCN1C(=O)c2oc3ccccc3c(=O)c2C1c1cccc(Br)c1 (configuration not stated) | -6.6 | 1.0 | 5.7 | -3.5 | -0.5 | -3.7 | -1.0 | 2.7
49 | CSC(=NS(=O)(=O)c1ccccc1)SC | 6.2 | -7.1 | -2.2 | 1.4 | 0.1 | 0.5 | -1.6 | -1.5
50 | CC(Cc1n[nH]c(=S)n1N)c1ccccc1 (configuration not stated) | -1.8 | -1.4 | 0.9 | 0.4 | -0.3 | -0.5 | -1.2 | -2.7
51 | Cc1c(NC(=O)c2ccc(-c3ccccc3)cc2)cccc1C(=O)O | -4.4 | 2.0 | -5.4 | -2.4 | -6.8 | 0.7 | -10.8 | 1.9
52 | Cn1c(=O)c2c(-c3ccccc3)n(-n3cnnc3)cc2n(C)c1=O | -4.3 | 3.1 | -26.4 | -51.4 | -1.0 | 4.0 | 0.4 | 0.3
53 | CC1(C(=O)NCc2cc(F)cc(C(F)(F)F)c2)C=CC2(CCCCC2)N1C(=O)c1ccccc1 (configuration not stated) | x | x | -5.2 | x | 0.3 | -3.1 | -2.5 | -1.0
54 | Cc1cc(C)c(S(=O)(=O)N2CCOC2CNC(=O)C(=O)NCc2ccccn2)c(C)c1 (configuration not stated) | 11.2 | -10.4 | -1.4 | 1.7 | 0.2 | 3.1 | 0.6 | -0.9
55 | N#Cc1c(NC(=O)c2ccco2)sc2c1CCC2 | -2.6 | -6.8 | -5.0 | 1.4 | 0.8 | -8.2 | -8.0 | 3.3
56 | Cc1cc(=O)oc2cc(OCC(=O)N3CCCc4ccccc43)ccc12 | x | 7.8 | 0.5 | 2.0 | 0.0 | -1.9 | -8.6 | -0.8

Screening results: PubChem BioAssay, several laboratories
